RecA intein inh: blocks M. tuberculosis RecA intein splicing; cell-free RecA intein splicing, fluorescence; 0.75% of 290,000 active; inhibition, %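 (about 9 µM by stock and volumes)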; P9WHJ3; AID 2221; in the data active means inhibition above about 30%; inconclusive means no clear call, values can overlap the other calls;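 further: 0% = vehicle wells and 100% = reference inhibitor control wells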
Target sequence (P9WHJ3 whole entry, looked up): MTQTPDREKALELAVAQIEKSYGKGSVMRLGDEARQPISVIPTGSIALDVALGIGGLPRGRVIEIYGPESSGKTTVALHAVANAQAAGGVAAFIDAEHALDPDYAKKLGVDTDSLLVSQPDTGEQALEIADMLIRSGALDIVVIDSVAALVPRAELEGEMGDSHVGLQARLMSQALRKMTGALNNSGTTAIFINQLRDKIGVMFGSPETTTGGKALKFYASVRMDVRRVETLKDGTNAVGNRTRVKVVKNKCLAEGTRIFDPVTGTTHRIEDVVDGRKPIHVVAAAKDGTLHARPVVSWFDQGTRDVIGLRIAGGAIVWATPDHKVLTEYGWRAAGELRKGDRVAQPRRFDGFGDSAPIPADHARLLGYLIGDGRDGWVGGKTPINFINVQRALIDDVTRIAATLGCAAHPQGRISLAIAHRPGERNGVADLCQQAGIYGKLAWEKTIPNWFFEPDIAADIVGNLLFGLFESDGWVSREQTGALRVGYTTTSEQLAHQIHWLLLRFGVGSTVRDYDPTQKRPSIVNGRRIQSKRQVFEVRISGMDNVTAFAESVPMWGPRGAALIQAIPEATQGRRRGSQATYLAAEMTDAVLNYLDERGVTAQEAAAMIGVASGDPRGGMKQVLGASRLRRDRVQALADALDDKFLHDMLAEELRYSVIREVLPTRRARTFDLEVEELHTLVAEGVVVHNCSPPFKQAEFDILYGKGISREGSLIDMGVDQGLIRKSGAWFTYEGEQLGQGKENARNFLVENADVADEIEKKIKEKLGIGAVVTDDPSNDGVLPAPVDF
Mtb growth: M. tuberculosis H37Rv growth inhibitors, H37Rv strain (AID 1626); one-dose inhibition, % at 10 µM; IC50 in µM for titrated hits; 0.95% of 220,000 active; M. tuberculosis H37Rv growth inhibition; higher % means a stronger effect;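 active means confirmed in a dose series; inconclusive means inhibition above 80% but not taken into the dose series; inactive means below 80% or under 30% at every dose of the series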;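 further: bacteria incubated seven days before Alamar blue readout; 0% = bacteria only wells and 100% = bacteria with antibiotic wells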
Mtb bLac sens: beta-lactam sensitization of Mtb H37Rv; 0.27% of 330,000 active; AID 434955; M. tuberculosis H37Rv growth with meropenem, percent inhibition; hits of this screen are not shown here; inhibition, % at 25 µM;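 active means about 74% or more and at least 40 points above the plate without the antibiotic, then above 30% in a dose series; inconclusive means first-round hits that could not be retested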;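 further: growth measured after seven days incubation then overnight dye step; 0% = bacteria only wells and 100% = bacteria with antibiotic; twin plates without the antibiotic show which effects depend on it; some results filed as inactive read as strong as hits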
YopH PTP inh: blocks Yersinia enterocolitica YopH tyrosine phosphatase; fluorescence Ex485/Em525; inhibition, %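 (about 10 µM by stock and volumes)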; AID 898; 0.16% of 140,000 active;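 active means inhibition of 50% or more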;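 further: controls were vehicle for no effect and minimum signal wells for full effect; inactives centre near -20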
Arbovirus anti: arbovirus infection inhibition; AID 1251; arbovirus infection cell-based antiviral screen; 0.37% of 200,000 active; inhibition, % at 10 µM;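 active means inhibition from about 30%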;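 further: bluetongue infection of BSR cells; cell survival read as ATP light after 72 h; 0% = infected wells without compound and 100% = uninfected wells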
Arbovirus anti repeat: also measured in Arbovirus anti; calls as there; inhibition, %; measured here: 10K subset replicate screen; many hits read low in the repeat;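 first of two repeat runs on a subset; 0% = infected and 100% = uninfected wells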
The depositor's hits bear a star; ? = inconclusive; · = not tested or not shown. Only part of the results is shown; count on the stated rates, not on these rows.

SMILES	RecA intein inh	Mtb growth	Mtb bLac sens	YopH PTP inh	Arbovirus anti	others
O=C(CO/N=C/c1cccc([N+](=O)[O-])c1)Nc1ccc2ccccc2c1	1.3	54.6%	85.1	5.9	10.9
O=C(COC(=O)c1cc(F)cc(F)c1)Nc1cccnc1Cl	-0.8	0.8%	5.5	·	5.4
COc1ccc(N2CCN(C(=O)CCc3nnc4ccc(N5CCCC5)nn34)CC2)cc1	-1.3	·	-4.7	·	·
CCOC(=O)c1c(CN2CCN(C)CC2)n(-c2ccccc2)c2cc(Br)c(O)cc12	-1.2	47.1%	64.4	·	·
O=c1oc2c3c(nn2c2ccccc12)CCCC3	-2.8	-15.2%	2.2	-44.8	7.1
O=C(COC(=O)c1ccccc1F)c1ccc(-n2nncc2-c2ccco2)cc1	8.1	-4.6%	32.7	-10.6	12.3
Cc1cc(NC(=O)Cn2nc3c(cc2=O)CCCC3)ccc1Br	-0.1	-0.2%	41.8	7.0	-2.5
Cc1sc(NC(=O)CCC(=O)O)c(C#N)c1C	-5.2	12.2%	-1.8	·	16.8
CC(C)OCC(O)CSc1ccccn1 (configuration not stated)	-4.1	-8.3%	-6.1	-11.2	6.3
COc1ccc(Oc2ccc(S(=O)(=O)N3CCCCC3)cc2S(=O)(=O)N2CCCCC2)cc1	-0.3	-0.3%	4.1	·	35.8*	Arbovirus anti repeat=5.2*
COc1cccc(-n2nnnc2SCC(=O)N2CCCc3ccccc32)c1	3.7	11.8%	12.4	0.7	10.3
Cc1cc(C)cc(N2C(=O)CC(N(C(=O)c3ccco3)c3cc(C)cc(C)c3)C2=O)c1 (configuration not stated)	-3.8	-13.4%	4.9	-21.8	0.8
CC(C)(CNC(=O)c1ccc(-c2ccccc2Cl)o1)N1CCOCC1	1.4	·	-4.7	·	·
CC(C)(O)C#Cc1ccc(CN2CCN(Cc3ccsc3)C(CCO)C2)cc1 (configuration not stated)	1.3	-6.3%	2.3	·	-1.9
Cc1nn(-c2ccccc2)c2nc(C(F)(F)F)[nH]c(=O)c12	-5.1	10.0%	5.0	-12.7	37.2*
CS(=O)(=O)c1ccc(N2CCOCC2)c(S(C)(=O)=O)c1	-1.4	1.4%	-7.1	-14.2	12.7
O=C(CC1(C(=O)O)CCCC1)N1CCOCC1	2.6	3.6%	-4.2	-24.6	0.8
CN1C(=O)[C@H]2[C@@H](C3CC3)N3C(=O)CN(CCO)C(=O)[C@@]3(Cc3ccccc3)[C@H]2C1=O	-0.1	·	2.3	·	·
Cc1oc(-c2ccccc2F)nc1CS(=O)CC(=O)NC1CC1 (configuration not stated)	2.2	·	6.7	·	·
Cc1ccc(-c2nnn(CCC(=O)NC3CCCC3)n2)cc1	-0.3	2.4%	-4.1	-0.2	-2.9
O=C(Nc1ccccc1C(=O)N/N=C/c1ccc(O)cc1)c1ccccc1	3.9	-3.5%	-8.2	·	·
O=C(c1ccc2c3c(cccc13)CC2)C1CCCN(C(=O)c2cc[n+]([O-])cc2)C1 (configuration not stated)	-0.5	-4.8%	0.0	·	2.1
COc1ccc(C(=O)Oc2ccc(F)cc2C(=O)/C=C/c2ccc(OC)c(OC)c2)cc1	2.5	·	9.3	-30.0	-2.2
CCCCNC(=O)C1Cc2cc(S(=O)(=O)N3CCCC3)ccc2N1C(C)=O (configuration not stated)	-0.6	·	1.6	·	·
O=C(CCC(=O)N1CCOc2ccccc21)NC1CCN(Cc2ccccc2)CC1	-0.2	·	-0.8	·	·
CC(=O)Nc1ccc(S(=O)(=O)NC2CC(=O)N(c3ccc(C)cc3)C2)cc1 (configuration not stated)	1.8	·	2.1	·	·
CCc1cccc(C)c1NC(=O)C1CCCN1C(=O)NCc1ccccc1 (configuration not stated)	2.0	·	1.3	·	·
O=C(NNC1CC(=O)N(c2ccc(Cl)cc2)C1=O)c1ccccn1 (configuration not stated)	0.2	1.3%	98.0	·	-0.2
O=C(COc1ccc(Cl)cc1)NCc1nnc(SCC(=O)N2CCCc3ccccc32)o1	1.8	-1.8%	-8.7	-57.8	0.1
CC(C)CC(C(=O)N1CCc2ccccc2C1)N1C(=O)c2ccccc2C1=O (configuration not stated)	9.1	8.7%	6.4	-3.2	-17.1
CC1CCN(C(=O)COc2ccc(S(=O)(=O)N3CCCC3)cc2)CC1	-0.4	·	-1.4	·	·
CC(C)C(=O)Nc1sc2c(c1C(N)=O)CCN(Cc1ccccc1)C2	4.2	·	-9.4	·	·
COc1ccc(NC(=O)NNC(=O)c2cc3occc3n2C)c(OC)c1	2.5	·	-4.0	·	·
Cc1cccc(N2CCN(c3nnnn3-c3ccccc3)CC2C)c1 (configuration not stated)	-2.7	4.3%	-5.3	-16.4	6.9
CC1(C)C2CCC1(CS(=O)(=O)NCc1ccc(C(F)(F)F)cc1)C(=O)C2 (configuration not stated)	2.1	·	-3.2	·	·
Cc1ccc(S(=O)(=O)CC(O)COc2ccc(C#N)cc2)cc1 (configuration not stated)	-1.4	3.5%	-4.7	·	-0.5
S=C(NCc1ccccc1)NCc1cccc(CNC(=S)NCc2ccccc2)c1	6.8	5.6%	24.0	-27.6	-0.5
CN(C(=O)COC(=O)c1cccnc1Nc1cccc(C(F)(F)F)c1)C1CCS(=O)(=O)C1 (configuration not stated)	-1.7	-4.2%	-2.5	-3.5	17.8
O=S(=O)(Nc1ccc(-c2nc3ccccc3o2)cc1)c1ccccc1	13.2	-6.8%	1.2	-37.7	10.7
Cc1cc(C)cc(NC(=O)NC(C)C2CCCO2)c1 (configuration not stated)	-0.8	-8.6%	-0.8	·	-1.7
CCc1nnc(NC(=O)CN2CCN(Cc3cccc(Cl)c3)CC2)s1	1.8	·	5.1	·	·
CC#CC[N+](C)(C)CCCCCCCCCCCC	5.2	6.6%	·	-3.0	-15.1
CC(=O)Nc1n[nH]c(S(=O)(=O)Cc2ccc(Cl)cc2Cl)n1	1.1	-3.7%	8.5	-10.1	·
Cc1cc(Oc2ccc(C#N)cc2)nc(NCc2ccccc2)n1	10.5	7.7%	-1.7	-14.1	-3.1
CNS(=O)(=O)c1cccc(C(=O)OCC(=O)Nc2sc3c(c2C#N)CCCCC3)c1	0.3	3.9%	9.9	-36.6	-2.3
CCc1nc(C)c(-c2ccccc2)c(=O)[nH]1	-0.1	-5.6%	-4.3	10.8	7.8
COC(=O)c1c(NC(=O)c2ccco2)sc2c1C(C(=O)OC)CC2 (configuration not stated)	-9.6	-5.2%	44.9	-41.9	2.0
Cc1ccc(CN(CC2CCCO2)C(=O)CN2C(=O)C(C(C)C)Oc3ccccc32)o1 (configuration not stated)	4.6	1.4%	4.7	-18.5	-0.3
CC1(C)CN(c2ccc(CC#N)cc2)C1=O	2.1	-6.4%	-10.8	·	0.4
CCCn1c(N)c(N(CCOC)C(=O)c2cccc(S(=O)(=O)N3CCCc4ccccc43)c2)c(=O)[nH]c1=O	0.7	·	-6.6	·	·
O=C(Cn1c(=O)sc2ccccc21)Nc1ccc(S(=O)(=O)N2CCCCC2)cc1	2.8	-5.1%	2.2	-16.7	-1.8
O=C(c1ccc(C(F)(F)F)cc1)C1CCCN(C(=O)CCc2cnccn2)C1 (configuration not stated)	1.1	-6.3%	0.7	·	7.2
Cn1cc(C(=O)Nc2ccc(C#N)cc2)c2ccccc2c1=O	7.9	·	1.7	·	·
COCCCNc1nc(N)c([N+](=O)[O-])c(Nc2ccccc2OC)n1	-3.7	-0.4%	1.9	·	·
COCCNC(=O)NC(=O)COC(=O)c1cc([N+](=O)[O-])ccc1Sc1nc(C)cs1	1.0	-0.4%	-10.6	-5.1	0.7
O=C(CN(CC1CCCO1)C(=O)CNS(=O)(=O)c1ccccc1)NCc1ccc(F)cc1 (configuration not stated)	-7.0	·	1.2	·	·
CCOc1cc(Br)cc(/C=C2\SC(=Nc3ccccc3)NC2=O)c1O	8.7	·	33.1	·	·
COc1ccccc1OCc1ccc(C(=O)N(C)C)o1	-0.6	-9.1%	-10.5	1.9	-3.0
CNC(=O)C1Cc2ccccc2CN1S(=O)(=O)c1cccs1 (configuration not stated)	1.2	-5.6%	-8.9	-24.4	3.0
Cc1nn(-c2ccccc2)c(Cl)c1/C=C1\C(=O)N(C)C(=S)N1C	8.5	2.0%	6.5	·	2.2

Further compounds
SMILES	RecA intein inh	Mtb growth	Mtb bLac sens	YopH PTP inh	Arbovirus anti	others
CC1(C)CC(=O)C(N=Nc2cccc(S(=O)(=O)N3CCOCC3)c2)=C(O)C1	-3.0	20.1%	-3.5	·	·
Cc1ccc(S(=O)(=O)NCc2ccccc2)cc1C(=O)N1CCCCCCC1	-3.3	·	-11.8	·	·
Cc1[nH]c2ccccc2c1C(=O)C(=O)NC1CC(=O)N(c2ccc(F)cc2)C1 (configuration not stated)	0.9	·	-6.8	·	·
CC(=O)Nc1ccc(-c2csc(NC(=O)c3ccc(C)o3)n2)cc1	1.0	-1.1%	-0.1	-9.4	38.5*
Cc1c(Br)c(C(=O)N2CCc3ccccc32)nn1C	-0.3	9.9%	4.0	-23.8	-6.5
Cc1cc(C)c(C(=O)C(C)OC(=O)c2ccc(Cl)nc2)cc1C (configuration not stated)	1.6	·	53.7	·	·
O=C(c1cc(C(=O)NCCc2ccccc2)c(=O)n(CCc2ccccc2)c1)c1cc(Cl)ccc1O	0.3	16.9%	3.1	-17.6	-1.8
COc1ccc(OCC(=O)O/N=C(\N)Cc2ccc(Cl)cc2)cc1	-0.9	12.3%	1.1	-5.3	11.1
Cn1c(=O)oc2cc(S(=O)(=O)NCCN3CCCCCC3)ccc21	-2.6	1.0%	6.2	-42.8	3.3
O=C1COc2ccc(S(=O)(=O)N3CCCC3)cc2N1	1.6	·	2.0	·	·
C[C@H](NC(=O)c1nc[nH]c1C(=O)NCC(=O)OCc1ccccc1)C(=O)OC(C)(C)C	-2.9	·	-5.9	·	·
Cc1nc2ccccc2nc1OCC(=O)Nc1cc(C(F)(F)F)ccc1N1CCOCC1	1.9	0.8%	-1.4	-20.5	-2.1
O=S(=O)(c1ccc(Cl)s1)N1CCCc2cccc(O)c21	5.0	-4.4%	-5.6	-29.2	-2.0
COC(=O)c1cc2occc2n1Cc1nc(-c2cccc(Cl)c2)oc1C	0.2	·	0.1	-31.6	-9.7
Cc1ccc(Cn2cc(C=O)c(-c3ccc(C)cc3)n2)cc1	-6.7	2.8%	11.3	-26.3	14.3

The list goes on, overlapping the part above by 4 compounds.
SMILES	RecA intein inh	Mtb growth	Mtb bLac sens	YopH PTP inh	Arbovirus anti	others
Cc1nc2ccccc2nc1OCC(=O)Nc1cc(C(F)(F)F)ccc1N1CCOCC1	1.9	0.8%	-1.4	-20.5	-2.1
O=S(=O)(c1ccc(Cl)s1)N1CCCc2cccc(O)c21	5.0	-4.4%	-5.6	-29.2	-2.0
COC(=O)c1cc2occc2n1Cc1nc(-c2cccc(Cl)c2)oc1C	0.2	·	0.1	-31.6	-9.7
Cc1ccc(Cn2cc(C=O)c(-c3ccc(C)cc3)n2)cc1	-6.7	2.8%	11.3	-26.3	14.3
Nc1nc(NCc2ccccc2)n(-c2ccccc2)n1	0.0	·	-8.0	·	·
NC(=S)N/N=C/c1c[nH]c2ccccc12	0.5	45.4%	96.4	·	·
COc1ccc2oc(=O)c(C(=O)N3CCCC3)cc2c1	-7.3	-12.8%	-3.4	·	19.7
CC(=O)Nc1ccc(NC(=O)C(C)OC(=O)c2cccc(S(=O)(=O)N3CCCC3)c2)cc1 (configuration not stated)	-1.2	·	-17.3	·	·
COC(=O)c1ccc(Cl)c(NC(=O)NC23CC4CC(CC(C4)C2)C3)c1	3.9	2.4%	-6.9	2.4	-3.4
CCNC(=O)COC(=O)C1CCC(=O)N(c2ccc(OC)cc2)C1c1ccc(OC)cc1 (configuration not stated)	0.2	-1.9%	11.2	-88.3	6.1
COC(=O)c1cc(C)nc2c1C(=O)C(=O)C=C2N1CCOCC1	95.9*	·	-5.2	·	·
COCCn1c(N)c(N(Cc2ccccc2)C(=O)C2CCCC2)c(=O)[nH]c1=O	-1.6	2.4%	-5.6	·	3.7
Cc1c(C(=O)NCc2cccnc2)oc2ccc(S(=O)(=O)N3CCCCC3)cc12	0.7	-1.1%	-0.9	-22.0	5.0
COC(=O)c1cn(C)c2ccc(S(=O)(=O)N3CCOCC3)cc2c1=O	-1.5	0.7%	13.8	·	12.6
CSCCC(NS(=O)(=O)c1c(Cl)cccc1Cl)C(=O)O (configuration not stated)	0.4	-2.7%	7.1	·	1.5
O=C1CN=C(c2ccccc2)c2c(sc3c2CCCC3)N1	3.9	·	1.2	·	·
Clc1cccc(NCc2nnc3n2CCCCC3)c1	-0.3	-6.8%	-7.4	·	18.0
CCOc1cc(S(=O)(=O)NCc2ccc(OC)cc2)c(OCC)cc1-n1cnnn1	-1.9	-4.7%	?	-23.5	-20.5
COc1ccc(S(N)(=O)=O)cc1C(=O)OCCCOc1ccc(F)cc1	0.4	·	-5.3	·	·

Bioassay records deposited in PubChem BioAssay by several laboratories.
